Source: PubChem BioAssay
AmpC nodet inh – blocks E. coli AmpC beta-lactamase in absence of detergent. P00811. AmpC nitrocefin hydrolysis, absorbance 480 nm, no detergent; potencies from a single point are estimates. Potency, µM (doses to about 28.7 µM), for the others: at the top dose activity change, negative = inhibition. 71,000 compounds, 1.8% hits; active = falling curve, for most hits resting on a single point; inconclusive = weak or doubtful change; inactive = flat or rising curve; further: % of control where 0% means no effect; about half of the hits show no inhibition at the top dose; a quarter of the inactives give rising signals
Target sequence (P00811 whole entry, looked up): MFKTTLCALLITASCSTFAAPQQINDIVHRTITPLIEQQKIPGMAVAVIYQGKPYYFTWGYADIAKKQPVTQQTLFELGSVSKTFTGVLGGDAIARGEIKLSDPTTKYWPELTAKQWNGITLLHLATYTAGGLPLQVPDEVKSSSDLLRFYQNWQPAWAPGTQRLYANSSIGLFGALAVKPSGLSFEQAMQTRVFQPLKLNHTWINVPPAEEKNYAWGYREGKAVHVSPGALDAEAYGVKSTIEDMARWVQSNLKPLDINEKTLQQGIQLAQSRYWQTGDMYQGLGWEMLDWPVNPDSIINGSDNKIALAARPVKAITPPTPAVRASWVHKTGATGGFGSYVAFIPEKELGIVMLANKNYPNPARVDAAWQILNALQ
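AmpC in 20 mM phosphate buffer pH 7.0 was preincubated 15 min at room temperature with compounds. Nitrocefin (800 uM stock) was then added and hydrolysis followed at 480 nm every 20 s for 4 min.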
Starred values were filed as active, the others as inactive; [ ] = remark or other dose. Potency means the concentration at half of the fitted maximal effect.

SMILES | AmpC nodet inh
CC(=O)Nc1ccc(S(=O)(=O)NCCN2CCOCC2)cc1 | -12%
CN1C(=O)c2ccc(S(=O)(=O)c3ccc(C(=O)O)cc3)cc2C1=O | -11%
CC(C)=CCC/C(C)=C/CC/C(C)=N/O | 14%
Cc1nc(SCC(=O)NCCc2ccccc2)n[nH]1 | -5%
COc1ccc(OC)c(NC(=O)Cn2cc(C#N)c3cc(Br)ccc32)c1 | -16%
Cc1ccc(S(=O)(=O)N2CCCC(C(=O)NCc3cccnc3)C2)cc1Cl (stereo not drawn) | 65%
Cc1cccc(N2CCN(C(=O)C3CCN(c4nnc(-n5cccc5)s4)CC3)CC2C)c1 (stereo not drawn) | 105%
N#Cc1nc(COc2ccccc2)oc1N1CCC(Cc2ccccc2)CC1 | -15%
COc1ccc2c(c1OC)C(=O)N1C(C(=O)O)Cc3c([nH]c4ccccc34)C21 (stereo not drawn) | 4%
Cc1[nH]c(=O)[nH]c(=O)c1S(=O)(=O)N1c2ccc(F)cc2CCC1C (stereo not drawn) | -2%
Cc1ccc2c(SCC(=O)NCc3ccco3)nc(-c3ccc(F)cc3)nc2c1 | -13%
O=c1cc(CO)oc(C(Nc2ccccn2)c2ccsc2)c1O (stereo not drawn) | -19%
O=C(O)c1cccc(S(=O)(=O)Nc2ccc3c(c2)OCO3)c1 | -13%
Cc1ccc(C)c(NS(=O)(=O)c2ccc(OCC(=O)NCc3ccco3)cc2)c1 | 1%
O=C(c1oc(=O)c2ccccc2c1-c1ccccc1)N1CCC(O)CC1 | 42%
Cc1cc(C(=O)NC(C)C2CCCO2)cs1 (stereo not drawn) | -6%
COc1ccccc1CN1CC(C(=O)NC2CCCCC2)CC1=O (stereo not drawn) | 3%
COc1ccc(Cl)cc1NC(=O)N(C)Cc1c(C)nn(C)c1C | 30%
Cc1sc2ncnc(SCC(=O)c3cccs3)c2c1C | -12%
COc1ccc(-c2coc3cc(O)ccc3c2=O)cc1OC | -3%
COc1nc2ccccc2c(=O)n1OCC(C)C | 6%
Cc1oc2cc3c(C(=O)OCCN(C)C)c(C)oc3cc2c1C(=O)OCCN(C)C | 0%
c1ccc2c(CCNCc3ccc4c(c3)OCO4)c[nH]c2c1 | -8%
Cc1nn(C)c(C)c1NC(=O)CSc1nc(-c2ccccc2F)nc2c1cnn2-c1ccccc1 | 12%
CS(=O)(=O)N(CC(=O)NC1CCCCC1)c1cccc(Cl)c1 | 13%
O=C(CN1C(=O)c2ccccc2C1=O)Nc1cccc2cccnc12 | -3%
CCS(=O)(=O)N1CCN(C2CCC(C)CC2)CC1 (stereo not drawn) | -10%
O=C(CN1C(=O)CCC1=O)Nc1nc(-c2cccs2)cs1 | -9%
COc1cc2c3cc1Oc1c(O)c(OC)cc4c1[C@@H](Cc1ccc(cc1)Oc1cc(ccc1O)C[C@H]3N(C)CC2)N(C)CC4 | 7%[5.75 µM]
CS(=O)(=O)N1CCC2(CCN(c3ccccc3)CC2)CC1 | 17%
O=C(O)c1cc(-c2ccco2)nc2ccccc12 | -12%
COc1ccc(OCC(=O)Nc2ncc3c(n2)CC(C)(C)CC3=O)cc1 | 14%
Cc1ccc(NC(=O)CCn2c(=O)oc3ccccc32)cc1 | -16%
Cc1cc(C)c(N)cc1C | 1%
O=C(c1ccco1)N1CCN(C(=O)c2cnn3cccnc23)CC1 | 9%
CC1CCc2nn(CC(=O)NCCC3=CCCCC3)cc2C1 (stereo not drawn) | 54%
CCCCCCCCOc1ccc(C(=O)O)cc1 | -6%
O=S(=O)(NCc1ccc2c(c1)OCO2)c1cccc2cccnc12 | -10%
COc1ccc(Br)cc1S(=O)(=O)N1CCOCC1 | 2%
c1cn2c(NC3CCCC3)c(-c3ccc(N4CCOCC4)cc3)nc2cn1 | 35%
O=C(COC(=O)c1ccc2c(c1)OCO2)NC1CCS(=O)(=O)C1 (stereo not drawn) | -13%
COc1c(Cl)cc(Cl)cc1C(=O)Nc1ccccc1N1CCN(C(C)=O)CC1 | 107%
COc1ccc(-c2cc(CCCC(=O)NCCc3cc(OC)ccc3OC)no2)cc1 | 67%
Cn1c(-c2ccc3c(c2)OCO3)cnc1NCc1cccc(Cl)c1 | -9%
CCOc1ccccc1N(C)C(=O)C1CCN(S(=O)(=O)c2cccc3nonc23)CC1 | 97%
CCOc1ccc(CN2CCN(S(=O)(=O)c3ccc(NC(C)=O)cc3)CC2)cc1OC | 129%
CCOC(=O)N1CCN(C(=O)CCc2c(C)nc3nc(C)nn3c2C)CC1 | 10%
Nc1n[nH]c2ccccc12 | -3%[5.75 µM]
CCSc1oc(-c2ccco2)nc1S(=O)(=O)c1ccc(F)cc1 | -3%
OCCN1CCN(c2nc(-c3ccccc3)c3cc(Cl)ccc3n2)CC1 | 164%
CCN(c1ccccc1)S(=O)(=O)c1cnc[nH]1 | -7%
CC1(C(=O)O)CCC(C(=O)N2CCOCC2)C1(C)C (stereo not drawn) | -3%
CC(C)N(Cc1nc(-c2ccccc2)no1)C(=O)c1ccc2c(c1)OCO2 | 4%
CC(C)CN1CC[C@@]2(CCCN(C(=O)c3ccncc3)C2)C1 | 26%
C[n+]1c(/C=C\c2ccc(O)c3ncccc23)[se]c2ccccc21 | -5%[5.75 µM]
Cc1ccc(C2=Nc3ccccc3NC(C)(c3ccc(C)o3)C2)o1 (stereo not drawn) | -7%
CSc1nnc(Cn2c(=O)sc3ccccc32)n1-c1ccccc1C | 20%
O=C(CN1CCN(C2CCCCC2)CC1)c1ccc2cc[nH]c2c1 | 17%
O=C(NCC1CCCO1)c1cccnc1Nc1ccccc1F (stereo not drawn) | 12%
CC1CCN(C(=O)C2Cc3ccccc3CN2S(=O)(=O)c2ccc(F)cc2)CC1 (stereo not drawn) | 8%

5 entries out of the list, ordered by length of the SMILES, low to high.
SMILES | AmpC nodet inh
Nc1n[nH]c2ccccc12 | -3%[5.75 µM]
CC(C)=CCC/C(C)=C/CC/C(C)=N/O | 14%
c1ccc2c(CCNCc3ccc4c(c3)OCO4)c[nH]c2c1 | -8%
CC(C)N(Cc1nc(-c2ccccc2)no1)C(=O)c1ccc2c(c1)OCO2 | 4%
COc1ccc2c(c1OC)C(=O)N1C(C(=O)O)Cc3c([nH]c4ccccc34)C21 (stereo not drawn) | 4%

The listing continues.
SMILES | AmpC nodet inh
Cc1ccc2cc(COC(=O)c3ccncc3)c(=O)[nH]c2c1 | -5%
O=C(CSc1nnc(-c2ccco2)o1)c1ccccc1 | -14%
COc1ccc(C(=O)/C=C\N2CCOCC2)cc1 | -7%
CC(=O)Nc1cc2c(cc1NC(=O)c1cnccn1)OCCO2 | 4%
CCc1ccccc1S(=O)(=O)Cc1ccc(C(=O)NCC2CCCO2)o1 (stereo not drawn) | 20%
COCCOC(=O)c1c(C)n(C)c2ccc(OC(=O)N3CCOCC3)cc12 | 53%
Cc1ccc(-n2ncc3c2ncn2c(-c4ccncc4)nnc32)cc1 | 10%
O=C(NCc1ccc(Cl)c(Cl)c1)c1cccnc1 | 3%
Cc1ccc2nc(CSc3nnc(-c4ccco4)n3-c3ccccc3)cc(=O)n2c1 | 70%
O=C(NCCCN1CCOCC1)c1ccc(CS(=O)(=O)c2c(Cl)cccc2Cl)o1 | 3.2µM*[single pt active]
CC(C)CCNC(=O)Cn1c(=O)oc2cc(S(=O)(=O)N3CCc4ccccc43)ccc21 | -7%
COc1cccc(CC(NC(C)=O)C(=O)NC2CCN(c3c4c(nc5ncnn35)CCC4)CC2)c1 (stereo not drawn) | 15%
Cc1ccc(NC(=O)c2ccco2)cc1C | -3%
Cc1noc(C)c1-c1nc(NCc2ccccc2)c2ccccc2n1 | 1%
O=C(Nc1nc2ccccc2n1Cc1ccc(Cl)cc1)c1ccco1 | -8%
CCOC(=O)c1ccc(NC(=O)Cn2cc3c(n2)CCC(C)C3)cc1 (stereo not drawn) | 2%
Cc1cc(-c2cccnc2)c(C#N)c(SCC#N)n1 | -4%
O=C(CN(C(=O)c1ccco1)c1cccc(F)c1)NCc1ccc(F)cc1 | 11%
CN1CCCC(OC(=O)c2ccc3c(c2)OCCO3)C1 (stereo not drawn) | -16%
CCOC(=O)c1snc(-c2ccc(F)cc2)c1N | -11%
CCc1nc(SCC(=O)N2CCCC2)c2ccccc2n1 | 18%
CCNS(=O)(=O)c1ccc(NS(=O)(=O)c2cc(C)ccc2C)cc1 | -13%
COC(=O)c1ccc(NC(=O)C23CCC(C)(C(=O)O2)C3(C)C)cc1 (stereo not drawn) | 22%
O=C(OCc1cccs1)c1ccccc1NS(=O)(=O)c1ccc2c(c1)OCCO2 | -17%
COc1ccc(N=c2oc3cc(O)ccc3cc2C(=O)NCC2CCCO2)c(OC)c1 (stereo not drawn) | 47%
COc1ccc(OC)c(-c2nc(C)sc2CC(=O)O)c1 | 11%
COc1ccc(C)cc1-n1nnnc1SCc1nc2ccccc2s1 | 6%
O=C(CCCN1C(=O)c2ccccc2C1=O)Nc1nncs1 | -21%
CCCOc1ccc(N2C(=O)CC(N3CCC(c4nncn4CC)CC3)C2=O)cc1 (stereo not drawn) | 55%
O=C1c2oc3ccccc3c(=O)c2C(c2cccs2)N1CCCN1CCOCC1 (stereo not drawn) | 17%
Cc1ccc(C(=O)C2CCNCC2)cc1 | -15%
CC(C)Sc1nc(N)c2c3c(sc2n1)CN(C)CC3 | 48%
CC(=O)Nc1ccc(C2NC(=O)c3ccccc3O2)cc1 (stereo not drawn) | -9%
Cc1ccc(/C(O)=C2\C(=O)C(=O)N(CCCN(C)C)C2c2ccccn2)cc1 (stereo not drawn) | 4%
O=C(NC1CCS(=O)(=O)C1)OC1CCCCC1 (stereo not drawn) | -1%
CC1CCCC(C(=O)O)N1C(=O)CCSC(=O)c1ccccc1 (stereo not drawn) | -7%
O=C(NNS(=O)(=O)c1ccccc1)c1cccnc1 | 6%[5.75 µM]
COc1ccccc1C1/C(=C(/O)c2ccc(C)cc2)C(=O)C(=O)N1CC(C)O (stereo not drawn) | -5%
O=c1[nH]c2ccc(S(=O)(=O)Nc3ccc(-c4nnc5n4CCCCC5)cc3)cc2o1 | 4%
O=C(Nc1ccc2c(c1)ncn2-c1ccccc1)c1ccco1 | -6%

14 compounds already listed, sorted by heavy-atom count, smallest number first.
SMILES | AmpC nodet inh
Cc1ccc(C(=O)C2CCNCC2)cc1 | -15%
O=C(NC1CCS(=O)(=O)C1)OC1CCCCC1 (stereo not drawn) | -1%
CCOC(=O)c1snc(-c2ccc(F)cc2)c1N | -11%
O=C(NNS(=O)(=O)c1ccccc1)c1cccnc1 | 6%[5.75 µM]
COc1ccc(OC)c(-c2nc(C)sc2CC(=O)O)c1 | 11%
CCc1nc(SCC(=O)N2CCCC2)c2ccccc2n1 | 18%
O=C(CCCN1C(=O)c2ccccc2C1=O)Nc1nncs1 | -21%
CC1CCCC(C(=O)O)N1C(=O)CCSC(=O)c1ccccc1 (stereo not drawn) | -7%
COC(=O)c1ccc(NC(=O)C23CCC(C)(C(=O)O2)C3(C)C)cc1 (stereo not drawn) | 22%
COc1ccc(C)cc1-n1nnnc1SCc1nc2ccccc2s1 | 6%
COc1ccccc1C1/C(=C(/O)c2ccc(C)cc2)C(=O)C(=O)N1CC(C)O (stereo not drawn) | -5%
O=C(OCc1cccs1)c1ccccc1NS(=O)(=O)c1ccc2c(c1)OCCO2 | -17%
CCCOc1ccc(N2C(=O)CC(N3CCC(c4nncn4CC)CC3)C2=O)cc1 (stereo not drawn) | 55%
COc1ccc(N=c2oc3cc(O)ccc3cc2C(=O)NCC2CCCO2)c(OC)c1 (stereo not drawn) | 47%

(more compounds)
SMILES | AmpC nodet inh
CCOc1ccc(C(=O)OCC(=O)NCc2ccco2)cc1OCC | 19%
COc1ccc(S(=O)(=O)N2CCN(c3cccc(C)c3C)CC2)cc1 | 6%
C=CCN1C(=NC(=O)CCCC(=O)O)SC2CS(=O)(=O)CC21 (stereo not drawn) | -13%
Cc1ccnc2nc(C(=O)NC3=NCCS3)nn12 | -6%
CCN1CCN(C(=O)c2cc3c(=O)n4ccccc4nc3n2Cc2ccccc2)CC1 | -1%
CCCn1cc(C(CC(=O)O)C(=O)O)c2ccccc21 (stereo not drawn) | -12%
O=C(CSc1nc(N2CCCCC2)nc(N2CCCCC2)n1)N1CCc2ccccc21 | -1%
CC(C)OCC(O)CN1CCN(CC(O)COc2ccc3c(c2)OCO3)CC1 (stereo not drawn) | -11%
Cc1nnc(SCC(=O)NC2CC2)n1CCc1ccccc1 | 2%
CCCNC(=O)c1ccc2c(c1)ncn2-c1ccccc1OC | -1%
CC(O)c1nc2ccc(Cc3ccc4nc(C(C)O)[nH]c4c3)cc2[nH]1 (stereo not drawn) | -5%
COc1cccc(-c2ccc3ncnc(NCc4cccs4)c3c2)c1 | 6.3µM*
COC(=O)C(CCSC)NC(=O)C(NC(=O)C1CCC(C)CC1)C(C)C (stereo not drawn) | 6%
Cc1cc(NC(=O)COC(=O)COc2ccc3c(c2)CCC3)no1 | -2%
Nc1nc(-c2ccccc2)nc(-c2ccccc2O)n1 | -5%
CC(=O)NC1CCC(C(=O)O)(c2ccccc2)C1 (stereo not drawn) | -11%
Cc1nc2cc(-c3cccc(F)c3)nn2c(C)c1CCC(=O)N1CCN(c2ccccn2)CC1 | 4µM*[single pt active]
O=c1oc(-c2ccco2)nc2c1cnn2-c1ccccc1 | 2%
COc1ccc2oc(=O)c(C(=O)N3CCN(C45CC6CC(CC(C6)C4)C5)CC3)cc2c1 | 59%
Cc1cc(C(=O)COC(=O)c2cccs2)c(C)n1-c1c(C)n(C)n(-c2ccccc2)c1=O | 43%
CCCc1cc(=O)n2[nH]c(SCc3ccccc3)nc2n1 | -11%
O=C(Nc1ccccc1)c1ccc(NCc2cccnc2)c(S(=O)(=O)N2CCOCC2)c1 | 76%
CCOc1ccc(NC(=O)c2oc3ccccc3c2NC(=O)CC)cc1 | 26%
Cc1ccc(C)c(Cn2cnc3c(cnn3C(C)(C)C)c2=O)c1 | 41%
Nc1nnc(SCc2ccc3c(c2)OCO3)s1 | -7%
CCc1nnc(NC(=O)CSc2nnc(-c3ccoc3C)n2-c2ccccc2)s1 | 55%
CC(=O)N1CCN(c2ccc(NCc3ccc(C)cc3)cc2)CC1 | 79%

An excerpt; count on the stated rates, not on these rows.
